From PubChem
KCNQ2 inh = KCNQ2 channel blockers in CHO-K1 cells – cell-based, FluxOR thallium flux, B-score, primary screen (AID 2156); B-score at 10 µM; 310,000 tested, 1.1% active; 20 min; active compounds read low; only compounds with negative scores are shown here; some inactives read as strong as hits;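 active = fluorescence ratio B-score at most minus 3 library SDs, with starting brightness B-score within 2 library SDs, cut at about -5.5 in these data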
Target sequence (O88943 whole entry, looked up): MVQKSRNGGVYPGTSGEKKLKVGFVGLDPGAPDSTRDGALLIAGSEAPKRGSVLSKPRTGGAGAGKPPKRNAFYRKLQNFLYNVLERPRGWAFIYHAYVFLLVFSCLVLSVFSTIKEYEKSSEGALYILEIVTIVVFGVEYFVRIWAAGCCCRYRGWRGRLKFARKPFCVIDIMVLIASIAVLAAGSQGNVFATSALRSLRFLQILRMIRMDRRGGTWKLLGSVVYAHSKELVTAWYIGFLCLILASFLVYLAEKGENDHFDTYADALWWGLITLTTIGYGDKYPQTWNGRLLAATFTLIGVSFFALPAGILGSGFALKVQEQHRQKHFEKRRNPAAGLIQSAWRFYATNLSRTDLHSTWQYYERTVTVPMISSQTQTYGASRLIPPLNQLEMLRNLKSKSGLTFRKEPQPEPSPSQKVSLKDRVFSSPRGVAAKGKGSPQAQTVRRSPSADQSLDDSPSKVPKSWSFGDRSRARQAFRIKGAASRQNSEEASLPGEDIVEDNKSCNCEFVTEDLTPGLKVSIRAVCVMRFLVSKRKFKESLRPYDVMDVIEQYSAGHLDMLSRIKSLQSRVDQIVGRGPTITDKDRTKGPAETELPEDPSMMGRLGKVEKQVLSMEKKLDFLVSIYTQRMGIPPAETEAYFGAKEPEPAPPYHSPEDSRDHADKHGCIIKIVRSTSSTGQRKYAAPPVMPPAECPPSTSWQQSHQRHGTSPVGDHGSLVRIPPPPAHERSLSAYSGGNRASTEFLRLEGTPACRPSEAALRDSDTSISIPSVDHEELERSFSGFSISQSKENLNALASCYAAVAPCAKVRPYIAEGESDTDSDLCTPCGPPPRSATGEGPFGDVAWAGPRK
KCNQ2 inh baseline = second read-out of KCNQ2 inh, no call of its own (marks repeat the call); B-score; measured here: initial fluorescence intensity artifact check;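 brightness before thallium and not channel activity; 0 = typical well and far values either way flag optical interference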
* marks the source's active call; other numbers are inactive results; i = inactive. Not all compounds are listed; the hit share may differ from the screen's.

Values in the order – KCNQ2 inh | KCNQ2 inh baseline
Cc1ccc(C(=O)Nc2sc3c(c2C(=O)O)CCCC3)o1
 : i | 1.8
Cn1c(-c2ccc(F)cc2)cnc1SCC(=O)Nc1ccccc1
 : i | 0.25
CCOc1nc(SC(C(C)=O)C(=O)Nc2ccccc2)nc(N(C)C)n1 (stereo unspecified)
 : i | 2.6
O=S(=O)(NCC1CCCO1)c1ccccc1 (stereo unspecified)
 : i | 0.21
O=C1OC(c2ccccc2)=N/C1=C\C=C\c1ccco1
 : i | -1.5
CC(=O)CN1C(=O)NC2(CCCc3ccccc32)C1=O (stereo unspecified)
 : i | 1
Cc1nnc(Sc2cc(C(=O)NCc3ccco3)c3ccccc3n2)s1
 : i | -0.81
COc1ccccc1C(CC(=O)Nc1ccc(C)c(C)c1)c1ccc(OC(C)C)cc1 (stereo unspecified)
 : i | 1.8
COc1ccccc1N1CCN(C2CCCN(C(=O)c3ccccn3)C2)CC1 (stereo unspecified)
 : i | 0.42
COc1cc(-c2cc(C(=O)N(C)Cc3ccccc3)c3ccccc3n2)cc(OC)c1OC
 : -7.2* | 1*
COc1ccccc1-c1cc(C(=O)NC2CCN(C)CC2)c2ccc(Cl)c(C)c2n1
 : -5.8* | -0.18*
Cc1ccc(OCC(O)CN2CCN(Cc3ccc4c(c3)OCO4)CC2)cc1C (stereo unspecified)
 : i | -0.01
O=C1CSC(=S)N1c1cccc(Cl)c1
 : i | 0.9
O=C(NC12CC3CC(CC(C3)C1)C2)c1cc([N+](=O)[O-])ccc1N1CCOCC1
 : i | -0.05
Cc1c(Cl)c([N+](=O)[O-])nn1CCCC(=O)N(Cc1ccccc1)Cc1ccccc1
 : i | 0.06

(list continues)
Values in the order – KCNQ2 inh | KCNQ2 inh baseline
O=C(Nc1ccccc1NC(=O)c1ccco1)c1ccccc1
 : i | -0.03
Cc1cccc(/C=N/c2sc3c(c2C#N)CCN(Cc2ccccc2)C3)c1O
 : i | 0.21
Cc1cc(C)cc(NC(=O)C/C(N)=N/O)c1
 : i | 2.2
O=C(c1cccc([N+](=O)[O-])c1)c1ccc2c(c1)OCCOCCOCCOCCO2
 : i | 0.13
CCOc1ccccc1C(=O)Nc1nnc(C(C)C)s1
 : i | 1.3
C=CCn1c(SCc2cc(=O)n3ccsc3n2)nc2sc(C)c(C)c2c1=O
 : -9* | -0.23*
Cc1ccc(C(C(=O)NCC2CCCO2)N(C(=O)c2snc(C(N)=O)c2N)c2ccc(C)c(C)c2)o1 (stereo unspecified)
 : i | -0.05
O=C(OCc1nnc(-c2ccccc2)o1)c1cn(-c2ccccc2)nc1-c1ccccc1
 : -6.2* | 1.3*
O=C(c1cc(-c2ccccc2O)on1)N1CCCCCC1
 : i | -1.6
COc1cc(/C=N/NC(=O)c2ccncc2)ccc1OC(=O)c1cc(OC)c(OC)c(OC)c1
 : i | -0.88
Cc1ccc(S(=O)(=O)C(C#N)c2nc3ccccc3nc2N2CCCC2)cc1 (stereo unspecified)
 : i | 2.7
O=C(Nc1ccnn1C1CCN(C/C=C/c2ccc(F)cc2)CC1)C1CCCC1
 : i | -0.04
O=C(NCc1ccccn1)C(=O)NCC1OCCN1S(=O)(=O)c1ccc(Cl)cc1 (stereo unspecified)
 : i | 2.3
CCOC(=O)C1=NNC2(c3ccc(C)cc3)C(=O)N(c3ccc(Cl)cc3)C(=O)C12 (stereo unspecified)
 : i | -0.08
O=C(Cc1c(F)cccc1Cl)Nc1ccccc1C(=O)N1CCCCC1
 : i | 0.15

Pulled by compound from above, 5 records:
Values in the order – KCNQ2 inh | KCNQ2 inh baseline
CC(=O)CN1C(=O)NC2(CCCc3ccccc32)C1=O (stereo unspecified)
 : i | 1
O=C(NCc1ccccn1)C(=O)NCC1OCCN1S(=O)(=O)c1ccc(Cl)cc1 (stereo unspecified)
 : i | 2.3
COc1ccccc1-c1cc(C(=O)NC2CCN(C)CC2)c2ccc(Cl)c(C)c2n1
 : -5.8* | -0.18*
Cc1ccc(C(=O)Nc2sc3c(c2C(=O)O)CCCC3)o1
 : i | 1.8
CCOC(=O)C1=NNC2(c3ccc(C)cc3)C(=O)N(c3ccc(Cl)cc3)C(=O)C12 (stereo unspecified)
 : i | -0.08

The listing continues:
Values in the order – KCNQ2 inh | KCNQ2 inh baseline
O=C(Oc1cccc(NC(=O)c2ccco2)c1)c1cccc(S(=O)(=O)N2CCCCC2)c1
 : i | -1.9
CSc1ncccc1C(=O)OCC(=O)Nc1cc(C(F)(F)F)ccc1N1CCOCC1
 : i | -0.08
CC(C)OC(=O)c1cc2c(ccn2C)n1CC(=O)N(Cc1ccccc1)c1ccc(F)cc1
 : i | 0.24
CCOC(=O)Cc1csc(NC(=O)c2ccc3ncsc3c2)n1
 : i | 0.94
CCCCc1cc(=O)oc2c(CN3CCN(C)CC3)c(O)ccc12
 : i | -1.1
CN1CCC23c4ccccc4NC1C21CCN(C)C3Nc2ccccc21
 : i | 2.1
O=C(c1cc2nc(-c3ccco3)cc(C(F)(F)F)n2n1)N1CCCc2ccccc21
 : i | 0.78
CC1CN(CC(=O)NCc2ccccc2)CC(C)O1 (stereo unspecified)
 : i | 1.1
O=C(COC(=O)Cc1cn2ccsc2n1)Nc1nc2ccccc2s1
 : i | -1.7
COc1ccc(C[C@H]2c3cc(O)c(OC)cc3CC[N+]2(C)[O-])cc1O (stereo partly specified)
 : i | 0.8
CCCc1cc(C(=O)NCCc2ccc(OC)c(OC)c2)no1
 : i | 1
CCN1CCN(CCCCOc2ccccc2F)CC1
 : i | -1.4
Cc1ccc(-c2nnc(CSc3nnc(COc4ccccc4)n3-c3ccccc3)o2)cc1
 : i | -0.52
CC(NC(=O)Nc1ccc2c(c1)OCO2)C1CCCO1 (stereo unspecified)
 : i | -1.1
CS(=O)(=O)Nc1ccc(C2=NN(C(=O)c3cccc(F)c3)C(c3cccs3)C2)cc1 (stereo unspecified)
 : i | -0.62

(continued)
Values in the order – KCNQ2 inh | KCNQ2 inh baseline
Cc1ncc(CSc2nc3ccccc3[nH]2)c(N)n1
 : i | 0.5
C=CCN1C(=O)/C(=C\c2cccc(OC(=O)c3ccco3)c2)SC1=S
 : i | 0.69
O=C(N/N=C1\CCSC1)c1cc(Cl)ccc1O
 : i | -0.43
NC1=NC[C@H](Cc2ccc(O)cc2)N1CCC12CC3CC(CC(C3)C1)C2
 : i | 0.24
CN(CC(=O)N1CCN(c2ccccc2)CC1)S(=O)(=O)c1cccs1
 : i | 2.1
CCOC(=O)c1ccc(NC(=S)Nc2ccc(C)cc2)cc1
 : i | -0.2
COc1ccc(C(=O)NC2CCN(CC(=O)Nc3c(C)cccc3C)CC2)cc1OC
 : i | -1.6
O=c1c2ccccc2nc(SCc2cccc(F)c2)n1Cc1ccco1
 : -6.2* | 0.26*
CCOC(=O)Cn1nc(C)n(-c2ccc(C)cc2)c1=O
 : i | 0.82
Cc1cc(F)ccc1S(=O)(=O)N1CCCOC1CNC(=O)C(=O)NC1CC1 (stereo unspecified)
 : i | 0.09
CC(C)Sc1nc2ccccc2n1CC(=O)NCc1ccc2c(c1)OCO2
 : i | -0.59
COc1ccc(C#Cc2ccc3c(c2)c(=O)c2ccccc2n3C)cc1
 : i | -3.1
CC1(C)Cc2ccccc2-c2nc3ccccc3c(=O)n21
 : i | 1.5
Nc1ccc2nc3c(c(Cl)c2c1)CCCC3
 : i | 2.6
O=C(NCCCCc1ccccc1)c1ccccc1Cl
 : i | -1.4

Further records.
Values in the order – KCNQ2 inh | KCNQ2 inh baseline
Cc1ccccc1CNC(=O)C(=O)Nc1nccs1
 : i | -0.19
CC(=O)N1C(=O)NC2=C(C(=O)CCC2)C1c1cccc([N+](=O)[O-])c1 (stereo unspecified)
 : i | 0.37
Cc1ccccc1OCC(=O)Nc1ccccc1NC(=O)c1ccco1
 : i | 0.8
CC1=C(C(=O)OCC2CCCO2)C(c2coc3ccccc3c2=O)C2=C(CC(C)(C)CC2=O)N1 (stereo unspecified)
 : i | -0.58
C=CCN(CC=C)C(=O)c1cccc(OC2CCN(S(=O)(=O)N(C)C)CC2)c1
 : i | -0.55
COc1ccc2c(c1)CC/C(=C\c1ccc(OC)c(Cn3nc(C)cc3C)c1)C2=O
 : i | 0.1
CCCCC1CCC(C(=O)Nc2ccc(S(=O)(=O)Nc3nccs3)cc2)CC1 (stereo unspecified)
 : i | -0.72
O=[N+]([O-])c1ccc(N/N=C2\CC3CC=CC23)cc1 (stereo unspecified)
 : i | 0.01
CCCCc1nc(SCC(=O)Nc2ncccn2)n[nH]1
 : i | 0.52
Cc1cc(C)c2c(N)c(C(=O)Nc3ccccc3Br)sc2n1
 : i | 0.84
Cc1ccc(C)c(OCCn2cc(C(=O)O)c3ccccc32)c1
 : i | -1.5
Cc1ccc(S(=O)(=O)N2CCC(C(=O)OCC(=O)N3CCc4ccccc43)CC2)cc1
 : i | -0.07
COC(=O)c1ccccc1-c1ccc(/C=N/NC(N)=O)o1
 : i | -0.57
Cn1c(=O)c2c(SCc3c(F)cccc3Cl)nc(CC(C)(C)C)nc2n(C)c1=O
 : i | 0.6
Cc1ccc(/C=N/NC(=O)c2ccc(NC(=O)c3ccccc3Cl)cc2)o1
 : i | -1.1

Further records follow.
Values in the order – KCNQ2 inh | KCNQ2 inh baseline
CCOC(=O)C1(C)C=C(Nc2ccccc2)C(=O)N1c1ccccc1 (stereo unspecified)
 : i | 0.19
c1ccc(-c2nnnn2-c2ccccc2)cc1
 : i | 0.21
COC(=O)CNC(=O)CSc1nnc(C)c(=O)[nH]1
 : i | -1.3
Cc1cccc(Nc2nc(C)nc3c2oc2ccccc23)c1
 : i | 0.02
Cc1occc1C(=O)NNS(=O)(=O)c1ccc([N+](=O)[O-])cc1
 : i | -1.8
COc1cc(OC)c(C2N(c3ccc(Cl)cc3)C(=O)C3CCCN32)cc1OC (stereo unspecified)
 : i | 1
Cc1ccc(C)c(N2N=C(C(=O)Nc3ccc(S(=O)(=O)N4CCCC4)cc3)CCC2=O)c1
 : i | 0.04
O=C(/C=N/O)Nc1ccccc1
 : i | 2.5
Cc1ccc(N2C(=O)NC(NS(=O)(=O)c3ccc(C)cc3)(C(F)(F)F)C2=O)cc1 (stereo unspecified)
 : i | 0.44
NS(=O)(=O)c1ccc(NC(=S)NC(=O)c2ccc3c(c2)OCO3)cc1
 : i | -0.01
CC1CCCCN1C(=O)c1cccc(NC(=O)c2ccccc2)c1 (stereo unspecified)
 : i | -0.15
O=C(NCC1CC1)c1ccc(Nc2nc3ccc(Br)cc3[nH]2)cc1
 : i | 0.29
O=C(Nc1cc(C(F)(F)F)ccc1N1CCOCC1)c1cccnc1Cl
 : i | -1.6
O=C(NC1CCCC1)C1CCC(=O)N1C1CCCC1 (stereo unspecified)
 : i | -1.2
COc1ccc(CNS(=O)(=O)c2cc3c(cc2C)N(C)CCO3)cc1
 : i | 0.01

Next compounds follow.
Values in the order – KCNQ2 inh | KCNQ2 inh baseline
COc1cccc(NC(=O)c2nn(C)c(C(=O)Nc3cccc(OC)c3)c2[N+](=O)[O-])c1
 : i | 1.5
O=C(NNC(=S)Nc1ccccc1Cl)c1ccccc1
 : i | -0.11
CC1(c2nnc(-c3ccc(F)cc3)o2)CC(c2cccnc2)=NO1 (stereo unspecified)
 : i | 0.77
COCc1nnc(NC(=O)c2ccc(S(=O)(=O)N(C)Cc3ccccc3)cc2)o1
 : i | -0.35
COC(=O)CSc1nc2ccc(N)cc2s1
 : i | 0.32
Cc1ccc(C(=O)NCC(=O)OCC(=O)NC2CCCC(C)C2C)s1 (stereo unspecified)
 : i | 0.93
O=C1c2ccccc2C(=O)N1CCCc1c[nH]c2ccccc12
 : i | -1
CCN(CC(=O)Nc1ccccc1C(F)(F)F)C(=O)c1cc(-c2ccccc2)nn1-c1ccccc1
 : -9.3* | -1.2*
CCN(CC(=O)Nc1c(F)cccc1F)C(=O)/C=C/c1ccc(Br)s1
 : i | 0.91
COC(=O)[C@@H](NC(=O)Nc1cccc(OC)c1)C(C)C
 : i | -0.32
COc1ccc(CCNC(=O)c2ccc(CS(=O)(=O)c3ccc(C)cc3)o2)cc1OC
 : i | 0.66
Fc1ccc2nc(C(F)(F)F)cc(N3CCOCC3)c2c1
 : i | 0.52
COc1ccc2nc(NC(=O)CSc3cn[nH]n3)sc2c1
 : i | 6.6
CC(C)c1ccc(NC(=O)N(CCc2nc3ccccc3[nH]2)C2CCCC2)cc1
 : i | -0.43
Cc1onc(-c2ccccc2)c1C(=O)n1cc(Br)cn1
 : i | 1.6

Carrying on:
Values in the order – KCNQ2 inh | KCNQ2 inh baseline
CCCCn1c(N)c(N(CCOC)C(=O)c2ccc(-c3ccccc3)cc2)c(=O)[nH]c1=O
 : i | 0.41
O=C(N/N=C/c1ccc[nH]1)c1ccccc1OCc1ccccc1Cl
 : i | -0.78
CCOP(=O)(OCC)/C(=N/OC(=O)c1ccc(Cl)cc1Cl)C(N)=O
 : i | 1.6
COc1cc2c(cc1OC)CN(c1ccc(-c3ccccc3OC)nn1)CC2
 : i | -1.9
COc1ccc(CNCC(=O)Nc2ccccc2-n2cccc2)cc1
 : i | 0.01
COc1ccc(N2C(=O)c3ccccc3C(C)(C)C2=O)cc1
 : i | -0.08
COc1cc(CN2CCN(CCCc3ccccc3)CC2CCO)cc(OC)c1 (stereo unspecified)
 : i | 0.06
O=C(Nc1cccnc1)c1ccccc1NS(=O)(=O)c1ccc(F)cc1
 : i | -0.49
Cc1ccc(C)c(CSc2nc3[nH]ncc3c(=O)[nH]2)c1
 : i | -1.2
C(=N\N=C\c1ccccn1)/c1ccccn1
 : i | -1.2
COc1ccccc1CNC(=O)C(CC(C)C)NC(=O)C1CCC(C)CC1 (stereo unspecified)
 : -8.2* | -0.4*
O=C(Cn1nc(-c2ccc(Cl)cc2)ccc1=O)NCc1ccc2c(c1)OCO2
 : i | -3
Cc1c(CCC(=O)NC2CC2)c(=O)oc2cc(O)ccc12
 : i | 1.9
O=C(Cn1cccn1)N1CCCC(Nc2ccc(F)c(F)c2)C1 (stereo unspecified)
 : i | 0.76
CCN(CC)C(=O)CSc1nnc(-c2ccco2)o1
 : i | 0.01
O=C(NC1CCCC1)C(c1ccncc1)N(CCCN1CCOCC1)C(=O)c1ccc(-c2ccccc2)[nH]1 (stereo unspecified)
 : i | 2.5
